VACV Venus inh = inhibitors of vaccinia virus (Venus reporter). Vaccinia virus Venus reporter expression, fluorescence. Potency, µM (highest dose often 36.5 µM), without a hit: at the highest dose activity change, negative = inhibition, most hits filed as inhibitors. actives 0.46% (n = 330,000). AID 720580; active means well fitted inhibition curve with a large enough effect; inconclusive means small, poorly fitted or top-dose-only effect; inactive means no such curve, though single readings can be large or run the other way; tested in A549 cells; note: nearly all actives have a fitted effect of over 30% in size; inactives centre near -10
Vaccinia mCherry = vaccinia inhibition (mCherry reporter) | Vaccinia virus mCherry reporter infection, fluorescence; about a quarter of the inactives have no number | Potency, µM (doses to about 36.5 µM), inactives show top-dose activity change, negative = inhibition, actives largely listed as inhibitors | actives 0.63% (n = 310,000) | AID 720579; active = well fitted inhibition curve with a large enough effect; inconclusive = small, poorly fitted or top-dose-only effect; inactive = no such curve, though single readings can be large or run the other way; tested in A549 cells; note: nearly all actives have a fitted effect of over 35% in size; inactives centre near -10
Numbers without * were called inactive; i = inactive; ? = inconclusive; nt = not tested or not shown; & = joins results of further samples; [ ] = another dose, or the depositor's remark. % is set by controls: 0 for no effect and ±100 for the full control effect; potency is the fitted concentration of half-maximal effect.

SMILES	VACV Venus inh	Vaccinia mCherry
CN(C)CCCn1c(=O)n(C2CCCCC2)c(=O)c2c3c(sc21)CCCCC3	1%	9%
Cc1nc(C)c(-c2ccnc(/N=C/NO)n2)s1	-23%	-25%
Cc1nc(SCC(=O)Nc2cccc(S(=O)(=O)N3CCOCC3)c2)nc(C)c1C	7%	-15%
O=C(Nc1cccc(Oc2ccc3c(c2)C(=O)NC3=O)c1)c1ccco1	-16%	-17%
COCc1c(C(=O)OC)nnn1-c1ccc(C(F)(F)F)cc1[N+](=O)[O-]	7%	-3%
COc1ccccc1CNc1nc(Nc2cccc(-c3cnco3)c2)c2sccc2n1	?	i
CC(=O)c1c(-c2ccc(Cl)cc2Cl)noc1C	1%[7.34 µM]	-3%[7.34 µM]
Cc1nc(C(F)(F)F)ccc1C(=O)N1CCC1(C)C(=O)NCc1cccs1 (configuration not stated)	-1%	-19%
COc1ccc(C(=O)Nc2ccccc2-c2ccccc2)cc1Cl	-1%	i
Cc1cccnc1Nc1nc(-c2ccc(F)cc2)cs1	-8%	i
C=CCNC(=S)NN(c1ccccc1)c1ccccc1	3%	2%
Cc1ccc(S(=O)(=O)NC(C)C(c2cccs2)N2CCN(C)CC2)cc1 (configuration not stated)	-27%	-16%
CCc1ccccc1NC(=S)NC1CC2CCCC(C1)N2Cc1cccs1 (configuration not stated)	-28%	-12%
CC(C)OC(=O)NC(c1ccccc1)C(Cl)(Cl)Cl (configuration not stated)	-22%	-3%
CCCCN1CC[C@@H]2C=CC[C@H](C(=O)OC)[C@@H]2C1=O	3%	i
CC1CCN(C(=O)Cn2cc(SCc3ccccc3)c3ccccc32)CC1	-13%	-7%
Cc1cc(=O)[nH]c(SCC(=O)N2CCCC2)n1	-9%	-18%
Cc1ccc(S(=O)(=O)N2CCN(Cc3cccc(C)c3O)CC2)cc1	-9%	nt
CC(C)Cn1c(=O)c2ccccc2n2c(CCC(=O)Nc3cccc(Cl)c3)nnc12	-19%	-25%
O=Cc1cc2ccccc2cc1O	-7%	-14%
Cc1cc(C2=NNC(=NCc3ccccc3)SC2)c(C)n1-c1c(C)n(C)n(-c2ccccc2)c1=O	7%	-13%
C=C[C@H]1[C@H](OC2OC(CO)C(O)C(O)C2O)OC=C(C(=O)OC)[C@H]1C[C@H]1CC(=O)C[C@H](CC(=O)CCc2ccc(O)cc2)O1 (some centres not stated)	6%	2%
NC(c1csc(Nc2cc(NCCCO)ncn2)n1)c1ccccc1Cl (configuration not stated)	-15%	i
COc1ccc(CN2C(=O)NC3(CCOc4ccccc43)C2=O)cc1F (configuration not stated)	-18%	-25%
O=C(COc1cc(O)c2c(=O)cc(-c3ccccc3)oc2c1)c1ccccc1	-10%	nt
Cc1c(NC(=O)c2cc(-n3cnnc3)ccc2Cl)cccc1-c1nc2ccccc2s1	-5%	i
CCCCN1Cc2c(nc3cc(-c4ccco4)[nH]n3c2=O)C1=O	-10%	i
O=C(Nc1cnc(N2CCC(N3CCCCC3)CC2)c(C(=O)O)c1)c1ccc(Br)cc1	-4%	-9%
CN(Cc1ccco1)S(=O)(=O)c1nnc(NC(=O)c2ccccc2Cl)s1	0%	1%
O=C(CSc1nnc(SCc2ccc(Cl)cc2)s1)N/N=C/c1c(Cl)cccc1Cl	?	?
Cc1ccc(NC(=O)CCCN2C(=S)NC(C)(C)CC2C)cc1 (configuration not stated)	-8%	0%
COc1ccc2cnn(CCOc3cc(C)ccc3C(C)C)c(=O)c2c1OC	-15%	-27%
Cc1cnc(SCc2ccccn2)nc1C1CCCN(C(=O)c2noc3c2CCCC3)C1 (configuration not stated)	?	-16%
Cc1csc2nc(-c3cccc(NC(=O)C(C)C)c3)cn12	-11%[7.34 µM]	-18%[7.34 µM]
CCOc1ccc(N(CC(=O)Nc2ccccc2C(=O)N2CCCC2)S(C)(=O)=O)cc1	-13%	-27%
O=S(=O)(c1cccc(Cl)c1)N1CCN(c2nc(-c3ccccc3)nc3ccccc23)CC1	-19%	-6%
CCN(CC(=O)Nc1c(F)cccc1F)C(=O)CCNC(=O)c1ccccc1OC	-11%	i
COc1ccccc1CNC(=O)Cn1ncc2c(=O)oc3ccc(C)cc3c21	-7%	-3%
Fc1ccc(Nc2cncc(-c3ccsc3)c2)cc1Cl	-11%	-18%
CCOC(=O)[C@]12CCC=C1N(Cc1ccccc1)C(=O)[C@H](CC(=O)NCc1ccc(C)o1)C2	-16%	-11%

The last 2 entries of the part before are carried over, then new ones follow.
SMILES	VACV Venus inh	Vaccinia mCherry
Fc1ccc(Nc2cncc(-c3ccsc3)c2)cc1Cl	-11%	-18%
CCOC(=O)[C@]12CCC=C1N(Cc1ccccc1)C(=O)[C@H](CC(=O)NCc1ccc(C)o1)C2	-16%	-11%
CCC(C)C1NC(=S)N(C2CCCCC2)C1=O (configuration not stated)	-9%	i
CC1(C(=O)Nc2cccc3c2CCCC3)CCN1C(=O)C1(c2ccc(Cl)cc2)CC1 (configuration not stated)	-4%	i
CCCOc1ccc(CCN2CCC(=O)NC2=O)cc1C	-18%	nt
O=C(Cn1cnc2c(NCc3ccccc3)ncnc21)NCCN1CCOCC1	-20%	-5%
CC(=O)c1cccc(N=C2NC(=O)C(CO)(CO)S2)c1	-11%	-11%
COc1cccc(-c2cccc(-c3nc(C(=O)NCc4ccc5c(c4)OCO5)cc4c3[C@H](CCO)N(S(=O)C(C)(C)C)C4)c2)c1 (some centres not stated)	-13%	-1%
CCOC(=O)C1=C(C)NC(C)=C(C(=O)OCC)C1C(=O)OCC(=O)NCCc1ccccc1	-13%	-3%
CCOC(=O)Cn1cc(Cl)cc(C(=O)Nc2ccccc2)c1=O	-7%	11%
Cc1ccc(NC(=O)C2CCCN(S(=O)(=O)c3ccc4c(c3)oc(=O)n4C)C2)nc1 (configuration not stated)	-8%	i
O=C1N(CCCl)c2ccc(Br)cc2C12OCCO2	-10%	-18%
COc1ccccc1N1CCN(C(=O)CSc2ncnc3scc(-c4ccccc4)c23)CC1	-10%	-14%
CC1CCN(C(=O)Cn2cc(SCC(=O)Nc3ccccc3)c3ccccc32)CC1	-10%	-13%
O=C(COC(=O)Cc1ccccc1)Nc1ccc(Cl)cn1	-1%	5%
CC(=O)NC(c1cccc([N+](=O)[O-])c1)c1ccc2cccnc2c1O (configuration not stated)	?	?
Cc1ccc(NC2=CC(=O)OC(C)C2)cc1 (configuration not stated)	-5%	-1%
COCCn1c(C)cc(/C=C(\C#N)C(=O)OC(C)C(=O)Nc2ccc(NC(C)=O)cc2)c1C (configuration not stated)	-7%	i
O=C(CSc1nc(=O)n2ccccc2n1)N1CCN(c2ccccc2)CC1	-15%	-11%
CCN(CC)C(=O)Cn1cc(SCC(=O)Nc2cc(C)on2)c2ccccc21	-5%	-8%
O=C(Nc1ccc2nc(SCC(=O)N3CCc4ccccc43)sc2c1)c1ccc(Cl)cc1	-30%	?
O=C(OCc1nnc(-c2ccc([N+](=O)[O-])cc2)o1)C1CCN(C(=O)c2ccc(Cl)cc2)CC1	-14%	i
COc1ccccc1NC(=O)C1=C(C)Nc2c(C(=O)Nc3ccc(C)cc3)cnn2C1c1cccc(OC)c1OC (configuration not stated)	-12%	i
O=C(Cc1cccs1)N1CCN(S(=O)(=O)c2ccc(F)cc2)CC1	-8%	-5%
Cc1ccc(NC(=O)CS(=O)CC(=O)NCCCN(C)c2ccccc2)cc1 (configuration not stated)	-2%	-6%
CCc1ccc(NC(=O)CSC2=Nc3ccccc3C3=NC(CCC(=O)NCc4ccco4)C(=O)N23)cc1 (configuration not stated)	-16%	i
O=C(COC(=O)c1ccc(S(=O)(=O)N2CCCC2)cc1)NCc1ccccc1	-4%	-17%[1.46 µM]
CC(C)SCCCOc1ccc(C(C)(C)C)cc1	-1%	nt
Cn1c(O)c(/C=C/C=Nc2ccccc2)c(=O)n(C)c1=O	-4%	i
C[C@H](NC(=O)Cc1cccc2ccccc12)C(=O)N1CCCN(C)CC1	-9%	-4%
CCOC(=O)C1CCCN(S(=O)(=O)CCNC(=O)c2cccc(OC)c2)C1 (configuration not stated)	-16%	-12%
C=CCN(CC=C)CCOc1ccccc1	-12%	i

Looked up by compound from above (five):
SMILES	VACV Venus inh	Vaccinia mCherry
Cc1ccc(NC(=O)CS(=O)CC(=O)NCCCN(C)c2ccccc2)cc1 (configuration not stated)	-2%	-6%
Cn1c(O)c(/C=C/C=Nc2ccccc2)c(=O)n(C)c1=O	-4%	i
O=C(COC(=O)c1ccc(S(=O)(=O)N2CCCC2)cc1)NCc1ccccc1	-4%	-17%[1.46 µM]
COc1ccccc1NC(=O)C1=C(C)Nc2c(C(=O)Nc3ccc(C)cc3)cnn2C1c1cccc(OC)c1OC (configuration not stated)	-12%	i
C[C@H](NC(=O)Cc1cccc2ccccc12)C(=O)N1CCCN(C)CC1	-9%	-4%

(cont.)
SMILES	VACV Venus inh	Vaccinia mCherry
CCc1ccc(S(=O)(=O)NCc2ccc(C(=O)NCCN(Cc3ccccc3)C(C)C)cc2)cc1	-12%	13%
CCCCCCn1c(SCC(=O)c2c(N)n(C)c(=O)n(C)c2=O)nc2ccccc21	-11%	nt
COc1ccc(-c2cn(Cc3ccc(C)cc3)nn2)cc1	-11%&-11%	i
COc1ccccc1CCC(=O)N1CCN(S(=O)(=O)c2cccc(F)c2)CC1	-13%	-12%
CCc1ccc(CNCc2c(C(=O)O)c(C)n(Cc3c(F)cccc3Cl)c2C)cc1	-7%	-10%
O=C(Nc1cccc2ncccc12)c1ccccc1[N+](=O)[O-]	-13%	-16%
Cc1cc(CSc2ccccc2C(=O)O)on1	-9%	-14%
NC(=O)COC(=O)[C@H](Cc1ccccc1)NS(=O)(=O)c1ccc2c(c1)OCCO2	-19%	i
CCNC(=O)Oc1ccc(-c2csnn2)cc1	-4%	i
CCS(=O)(=O)CCSc1nc(C)cc(C)c1C#N	-11%	-13%

3 entries from above, with bars between the fields.
compound | VACV Venus inh | Vaccinia mCherry
CC(=O)NC(c1cccc([N+](=O)[O-])c1)c1ccc2cccnc2c1O (configuration not stated) | ? | ?
Cc1ccc(NC2=CC(=O)OC(C)C2)cc1 (configuration not stated) | -5% | -1%
COCCn1c(C)cc(/C=C(\C#N)C(=O)OC(C)C(=O)Nc2ccc(NC(C)=O)cc2)c1C (configuration not stated) | -7% | i

Next part:
SMILES	VACV Venus inh	Vaccinia mCherry
COc1ccc(N2CCN(C(=O)c3oc4ccccc4c3NC(=O)Cc3cccc(OC)c3)CC2)cc1	-18%	?
CCCCC/C=C/C1=CC(=O)C[C@H](c2ccc3c(c2)OCO3)C1	-7%	?
C#CCOC(=O)/C(=C/c1ccc(F)cc1)NC(C)=O	-5%	-5%
COc1ccc(/C=C(\C#N)C(=O)OCC(=O)Nc2ccc(-c3nc4ccc(C)cc4s3)cc2)cc1	2%	i
Cc1cccn2c(=O)nc(SCC(=O)Nc3cccc4ccccc34)nc12	-5%	-6%
CCOC(=O)c1ccc(N(C(=O)c2ccco2)C(C(=O)NC2CCCC2)c2ccncc2)cc1 (configuration not stated)	-13%	i
COc1ccc2c(Cl)c(C(=O)NN3CCN(C)CC3)sc2c1	-6%	-4%
CCOC(=O)c1cc(C#N)c(SCC(=O)c2cc(C#N)c(SC)nc2C)nc1C	-15%	i
Cc1ccsc1/C=C1\SC(N2CCOCC2)=NC1=O	-25%	nt
Cc1ccc(-n2nc(CC#N)c(C#N)c2N)cc1	-8%	-14%
O=C(Cc1ccccc1)N/N=C/c1cc(Br)cc(Cl)c1O	?	13µM*
O=C(COc1ccc([N+](=O)[O-])cc1)N(Cc1cccs1)C1CCS(=O)(=O)C1 (configuration not stated)	-12%[7.34 µM]	0%[7.34 µM]
COc1ccc(S(=O)(=O)N2CCCC(C(=O)N3CCN(C)CC3)C2)cc1Cl (configuration not stated)	-9%	-18%
O=S(=O)(Nc1cc(Sc2cccc3cccnc23)c(O)c2ccccc12)c1ccc(F)cc1	56%[activator]	?
COC(=O)C1=CN(Cc2ccccc2)C=C(C(=O)OC)C1c1cc(F)ccc1F	-6%	-14%
CC1=C(C(=O)OC(C)C)C(c2c[nH]c3ccccc23)n2ncnc2N1 (configuration not stated)	-9%	i
COc1cc(OC)cc(C(=O)NC(=S)Nc2cccnc2)c1	-5%	-15%
O=C(NCCCCc1ccccc1)C12CN(Cc3ccccc3)CC1C(c1cccc([N+](=O)[O-])c1)=NO2 (configuration not stated)	-16%	?
CC(=O)N1CCN(C2=NC(=O)C(=C3CCCCC3)S2)CC1	0%	-11%
CC(=O)Nc1c(O)n(C)c2ccccc12	-9%	-23%
O=C(O)c1ccccc1-c1c2cc(I)c(=O)c(I)c-2oc2c(I)c(O)c(I)cc12	i	i
CSc1ccc(C(=O)Nc2ccc(-c3nc4ccccc4s3)c(O)c2)cc1	-4%	1%
CCCCN(C1CCS(=O)(=O)C1)S(=O)(=O)c1cc(C)ccc1C (configuration not stated)	-16%	-20%
O=C(CSc1nc2ccccc2nc1N1CCOCC1)N1CCN(c2ccccc2)CC1	0%	-30%
CC1(C)OC2C(CO)OC(n3cnc4c(=O)[nH]cnc43)C2O1 (configuration not stated)	11%	3%
CC(C)(CNC(=O)c1cc2c(s1)CCCC2)N1CCOCC1	-18%	-6%
CNC(=O)/C=C1\NC(C)(C)Cc2ccccc21	-16%	i
CCc1ccccc1NC(=O)CCS(=O)(=O)c1ccc(OC)cc1	-12%	-4%
CCCCN(c1ccccc1)S(=O)(=O)N(C)C	-11%	-9%

Compound activity deposited in PubChem by National Center for Advancing Translational Sciences (NCATS).
